PINK1 expr mod: modulators of PINK1 expression; PINK1 immunofluorescence, high-content cytometry, 24 h; Potency, µM (titrated, usually from 76.6 µM), without a hit: at the highest dose activation (PINK1 increase), most hits filed as activators; 410,000 compounds, 0.2% hits; AID 624263; active = well fitted activation curve with a large enough effect; inconclusive = small, poorly fitted or top-dose-only effect; inactive = flat fitted curve, though single readings scatter; cell line not stated here;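 further: potency means the concentration at half of the fitted maximal effect; % of control where 0% means no effect; nearly all actives have a fitted effect of over 65% in size; a mitochondrial uncoupler was the plate control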
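Measures PINK1 amount and localization on or inside mitochondria by immunofluorescence. Stable cells get compounds at 5 concentrations for 24 hours before fixation and staining; CCCP controls included.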
TRPML1 inh: blocks the human TRPML1 channel; activity change, negative = inhibition, % (test concentration not listed); TRPML1-inducible cells, Ca2+ dye fluorescence, FDSS; hits give low values; inhibition of EC80 agonist-evoked calcium signal; Q9GZU1; 390,000 compounds, 0.02% hits; in the data active means activity change below about -50%; inconclusive means about -30% to -50%; inactive means above about -30%;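 further: stimulus is agonist 54-4 at its EC80 concentration; on the % scale 0 is the no-effect control and ±100 the full control effect; compound concentration not given in the record; the text of the record puts the active cut at -80%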
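Tet-induced TRPML1-DL cells loaded with Ca8 no-wash calcium dye were read kinetically on FDSS. Compound addition was followed by EC80 agonist 54-4 (4 uM final); inhibition was read over 110 s.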
Six1-Eya2 inh: Six1/Eya2 interaction inhibition | 360,000 compounds, 0.56% hits | Q15475+O00167 | AlphaScreen GST-Six1/His-Eya2 binding, biochemical; hits give low values; control for the full effect not named in the record | activity change, % (test concentration not listed) | AID 651725; in the data active = activity change below about -65%; inconclusive = about -30% to -65%; inactive = above about -30%; further: on the % scale 0 is the no-effect control and ±100 the full control effect
Target sequence (O00167 whole entry, looked up): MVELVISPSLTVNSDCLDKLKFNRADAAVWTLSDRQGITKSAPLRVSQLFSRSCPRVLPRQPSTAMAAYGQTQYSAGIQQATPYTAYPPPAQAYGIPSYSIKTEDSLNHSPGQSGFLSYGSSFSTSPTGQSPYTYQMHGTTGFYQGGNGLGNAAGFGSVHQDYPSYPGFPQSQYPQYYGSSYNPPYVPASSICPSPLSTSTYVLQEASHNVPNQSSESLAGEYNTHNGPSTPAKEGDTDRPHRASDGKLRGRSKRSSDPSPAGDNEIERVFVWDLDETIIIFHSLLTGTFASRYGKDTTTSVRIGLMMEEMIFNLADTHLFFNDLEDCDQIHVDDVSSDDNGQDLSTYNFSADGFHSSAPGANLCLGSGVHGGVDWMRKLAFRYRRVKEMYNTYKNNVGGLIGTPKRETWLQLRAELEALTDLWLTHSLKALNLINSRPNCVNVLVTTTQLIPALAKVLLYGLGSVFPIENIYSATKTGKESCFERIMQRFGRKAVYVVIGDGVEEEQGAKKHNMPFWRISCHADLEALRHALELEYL
Target sequence (Q15475 whole entry, looked up): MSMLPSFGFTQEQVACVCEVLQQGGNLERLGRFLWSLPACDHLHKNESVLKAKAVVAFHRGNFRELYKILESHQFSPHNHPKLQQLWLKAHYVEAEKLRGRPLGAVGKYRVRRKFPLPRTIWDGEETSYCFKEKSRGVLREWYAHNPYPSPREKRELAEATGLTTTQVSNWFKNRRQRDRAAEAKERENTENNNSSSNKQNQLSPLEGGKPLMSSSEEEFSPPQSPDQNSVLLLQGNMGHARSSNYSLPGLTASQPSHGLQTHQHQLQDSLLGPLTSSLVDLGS
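AlphaScreen luminescence read after one hour at 37 °C in darkness. Pin-transferred compounds met GST-Six1 and His-Eya2 protein (5X stock 250 nM/500 nM) plus glutathione donor and Ni-chelate acceptor beads (5X, 50 ug/mL).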
D2 potentiator: positive allosteric modulators of human D2 dopamine receptor; DiscoveRx D2 beta-arrestin cells, luminescence, 90 min; 100% = 57 uM dopamine signal; potentiation, % (no concentration beside the values); 360,000 compounds, 0.23% hits; active = potentiation of 50% or more; inconclusive = 30% to 50%; inactive = 30% or less;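 further: compound concentration not given in the record; tested on top of an EC20 dose of dopamine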
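PathHunter D2 cells, attached overnight at 37 deg C, received compound in DMSO plus dopamine at EC20 (50 nM final) for 90 min at 37 deg C. Beta-arrestin recruitment was read as luminescence after 1 h with detection reagent at ambient temperature.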
TRPML1 agonist: agonists of human TRPML1 channel; activation, % (concentration not given with the values); 410,000 compounds, 0.12% hits; AID 624414; TRPML1-expressing cells, Ca2+ dye fluorescence, FDSS; host cell line not named in the record; reference of the full effect not given here; in the data active = activation above about 50%; inconclusive = about 30% to 50%; inactive = below about 30%; further: 0% is about no effect; the text of the record puts the active cut at 80%
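TRPML1-DL cells, Tet-induced overnight (~16 h, 37 degrees C), loaded 45-90 min at room temperature with Ca8 no-wash calcium dye plus quencher. FDSS fluorescence: 10 s baseline, compound pin-transfer, 110 s agonist read, then EC80 54-4 (4uM final) and 110 s antagonist read.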
D2 agonist: activates the human D2 dopamine receptor; P14416; 360,000 compounds, 0.084% hits; AID 624465; activation, % (no concentration beside the values); DiscoveRx PathHunter D2 beta-arrestin, luminescence, 90 min; 100% = 57 uM dopamine signal; in the data active = activation above about 40%; inconclusive = about 15% to 40%; inactive = below about 15%; further: compound concentration not given in the record; the text of the record calls up to 30% inactive
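DiscoveRx PathHunter D2 beta-arrestin cells (2,100/well) attached overnight, then compound-stimulated 90 min at 37 C in HBSS/10 mM HEPES/0.1% Tween-20 buffer; beta-galactosidase complementation read by luminescence after 1 h at ambient temperature. Dopamine 57 uM final (EC100) as control.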
Numbers without * were called inactive; ? = inconclusive; . = no result given; & = joins results of further samples; [ ] = remark or other dose.

Values in the order: PINK1 expr mod	TRPML1 inh	Six1-Eya2 inh	D2 potentiator	TRPML1 agonist	D2 agonist
- Cc1ccc(NC(=O)CN2C(=O)C(C)Oc3ccccc32)nc1 (configuration not stated)
  -1.4%[38.3 µM]	4	0	-4	2.2	1.1
- CN1CCN(CCNC(=O)c2cnn(-c3ccc(F)cc3)c2C2CCN(C(=O)OC(C)(C)C)CC2)CC1
  -1.4%	7	.	.	1.4	.
- O=C(NNC(=O)C1CCC1)c1ccc(F)cc1
  1.2%	4	-3	-1	-0.7	1.6
- S=c1[nH]nc(-c2ccco2)n1/N=C/c1ccccc1
  28%	-15	-1	-18	-0.2	4.5
- Cc1c(NC(=O)CN2CCN(c3cccc(Cl)c3)CC2)c(=O)n(-c2ccccc2)n1C
  -1.3%	-16	-4	1	-0.1	-2.9
- C=CCNC(=O)C(=O)NCC1CCCN1CC (configuration not stated)
  0.1%	14	-1	-11	2.7	-1.0
- N/C(=N\OC(=O)Cc1cccs1)c1ccc(Cl)cc1
  0.2%	40	37	-19	1.6	-3.4
- CCN1CC(CNCc2cn(-c3ccc(OC)cc3)nc2-c2ccccc2Cl)CC1=O (configuration not stated)
  -1.1%	-10	0	-6	-0.1	-2.9
- Cc1cc(NCCCn2ccnc2)n2ncc(-c3ccccc3)c2n1
  -0.3%	-5	-23	-15	1.0	-0.4
- Cc1ccc(CN(Cc2ccccn2)C(=O)Nc2c(F)cccc2F)cc1
  -0.9%	44	-6	-19	1.7	0.4
- S=C(NN=C(c1ccccc1)c1ccccn1)N(Cc1ccccn1)Cc1ccccn1
  -1.5%	17	-94*	-9	3.6	5.8
- CC1CCCCC1NC(=O)CCNC(=O)N1CC(=O)Nc2ccccc21 (configuration not stated)
  -1.5%	-11	8	-17	0.2	-3.6
- N#Cc1c(-c2ccccc2)c(-c2ccccc2)nn(CC(=O)NNC(=O)Nc2ccccc2)c1=O
  4.6%	3	-22	6	-0.6	-0.5
- Cc1noc(C)c1NC(=O)Nc1cccc2c1O[C@@H](CN(C)C(=O)Nc1ccc3c(c1)OCO3)[C@@H](C)CN([C@H](C)CO)C2=O
  1.3%	0	-3	-1	-0.4	0.3
- CC(C)Oc1ccc(S(=O)(=O)N2CCOCC2)cc1NC(=O)C1CCCCC1
  2.5%	20	4	4	0.4	6.7
- CN(C)CCCNC(=O)CC1C[C@H](C(=O)N2CCOCC2)[C@@]2(CCC3CCCC3)c3[nH]c4ccccc4c3CCN2C1=O (some centres not stated)
  -0.3%	5	-1	.	0.0	-2.8
- CC1(C)Cc2c(C#N)c(NCCN3CCOCC3)nc(-c3ccccc3)c2CO1
  0.7%	-15	1	-6	0.7	-1.6
- O=C(NCCc1cccs1)Nc1nnc([C@H]2C[C@H](O)[C@@H](CO)O2)s1
  1.2%	.	-5	2	-0.4	-5.9
- CCOC(=O)N1CCN(c2cc3nccnc3cc2F)CC1
  6.3%[38.3 µM]	?	-3	-11	-0.2	-3.6
- O=C(NCC(c1cccnc1)N1CCc2ccccc21)c1ccc(Cl)cc1 (configuration not stated)
  -0.9%	-19	.	.	1.5	.
- O=C(Cn1cc(C(F)(F)F)cc(Cl)c1=O)NCc1ccc(F)cc1
  2.5%	-12	10	12	-0.5	-4.0
- O=C(CN1C(=O)c2ccccc2C1=O)Nc1ccccc1
  -0.6%	-7	9	-6	-0.6	2.1
- O=C(CCN1CCOCC1)Nc1ccc(Cl)cc1
  -1.0%	17	3	-24	-0.3	-2.4
- COc1cccc(-n2c(-c3cccc(F)c3)nc3c(cnn3-c3ccc(C)cc3)c2=O)c1
  -0.6%	-16	.	.	2.2	.
- Cc1ccc(S(=O)(=O)N2CCOC2CNC(=O)C(=O)NCc2ccc(Cl)cc2)cc1 (configuration not stated)
  1.5%	-5	5	6	2.9	3.9
- O=C(Nc1cc(Br)ccc1F)c1nc[nH]c1C(=O)NCc1ccccc1
  9.9%	.	-3	-6	0.0	-4.8
- Cc1c(C(=O)N2CCCC2)sc(NC(=O)c2ccco2)c1C#N
  -0.3%	0	-1	2	2.2	0.1
- CCC(CC)C(=O)N(C)c1c(C)nc2c(OCCOc3ccccc3)cccn12
  0.1%	.	-7	4	-1.2	5.8
- Cc1cc(C)c(NC(=O)CN2CCN(C)CC2)c(C)c1
  2.9%	-1	9	-2	0.4	-8.4
- C/C(=N\NC(=O)c1ccc(CSc2nncn2C)cc1)c1ccc(C#N)cc1
  -1.7%	16	-1	-3	0.3	-1.4
- CC(Sc1ccc(S(=O)(=O)N2CCCCCC2)cn1)C(N)=O (configuration not stated)
  0.1%	1	-2	-19	-0.1	-1.7
- CC(C)n1cc(C(=O)N2CCCC(N3CCN(c4cccc(Cl)c4)CC3)C2)cn1 (configuration not stated)
  -1.6%	3	0	-10	1.1	2.7
- CN(C)/C=N/c1nc2ncc(-c3ccc(Cl)cc3)c(/N=C/N(C)C)n2n1
  0.0%	1	-6	-9	1.0	1.8
- Cc1ccc(NC(=O)CC2CCCC2)c(Br)c1
  -0.3%	3	11	-2	1.4	2.5
- COc1ccc(NC(=O)CN(C)C(=O)c2ccc(NS(=O)(=O)c3ccc(F)cc3)cc2)cc1
  -1.1%	0	-3	-10	-0.8	-1.7
- Cc1cccc(CCNC(=O)c2cc(S(=O)(=O)N3CCCCC3)c[nH]2)c1
  1.2%&0.9%	1&-7	5	6	-1.4&-0.3	-5.8
- COc1cccc(NC(=O)CCCOc2cc(=O)n(C)c3ccccc23)c1
  11%	3	-2	-9	5.4	-2.2
- COc1ccccc1N(CC(=O)NCC1CCCO1)C(=O)CCC(=O)Nc1cc(C)on1 (configuration not stated)
  1.3%	13	-2	0	-1.1	5.2
- Cc1cc(C)cc(N2C(=O)C3CC=CCC3C2=O)c1 (configuration not stated)
  1.8%	6	6	6	-1.2	-1.7
- C[C@@H](C(=O)Nc1cc(C(F)(F)F)ccc1N1CCOCC1)N1C(=O)C2CC=CCC2C1=O (some centres not stated)
  0.7%	4	-2	-4	0.1	-2.9
- Nc1cc(=O)[nH]c(SCc2ccc(Cl)cc2Cl)n1
  1.2%	25	6	-6	-0.1	6.0
- CCCN(CCC)c1ccc(C(O)c2nnc(-c3ccccc3)o2)cc1 (configuration not stated)
  -0.2%	-5	-3	-1	-0.5	1.3
- Cc1ccc(NC(=O)Cn2ccsc2=N)c([N+](=O)[O-])c1
  -1.1%	0	8	-41	0.2	-2.4
- CCc1ccc(NC(=O)CSc2ccnc(=O)[nH]2)cc1
  0.4%	5	.	.	-0.8	.
- CCOC(=O)C1=C(c2ccccc2)NC(=O)NC1c1ccc(OC)cc1OC (configuration not stated)
  -0.7%	-3	8	-2	0.7	0.3
- CCOC(=O)C1CC(c2ccccc2)=NNC1=O (configuration not stated)
  0.0%	-8	4	-2	-0.7	-8.9
- COc1cc(CNCCSc2nnnn2C)cc(Br)c1OCc1ccccc1F
  -0.9%	33	2	-20	1.0	-2.0
- O=C(NNC(=O)c1ccccc1C(=O)O)c1ccc(O)cc1
  -3.1%	27	3	-1	1.6	1.4
- COc1cc(/C=C2\SC(=O)N(CC(=O)Nc3ccc(C)cc3)C2=O)cc(Cl)c1OCC(=O)O
  -1.0%	-4	?	1	1.1	0.7
- CCCCNC(=O)c1onc(CSc2ccc(F)cc2)c1C(=O)O
  1.7%	-13	9	3	-0.1	3.9
- COc1ccc(/C=N/Nc2nc(=O)[nH]nc2C)cc1OC
  -0.2%	-6	-14	-2	-0.8	-1.3
- CCOC(=O)N1CCN(CC(=O)Nc2c(C(=O)OC)[nH]c3ccc(Cl)cc23)CC1
  2.1%	22	-11	-3	2.4	2.0
- c1ccc(Nc2nc(-c3ccncc3)cs2)cc1
  -1.9%	-5	1	-2	-1.2	3.7
- Nc1ccc(-c2nc3cc(N)ccc3s2)cc1
  -0.1%	2	1	19	-1.3	12
- O=C(Nc1ccc2c(c1)OCO2)C(c1ccccc1)N1CCN(C(=O)c2ccco2)CC1 (configuration not stated)
  -1.1%	3	-2	-13	3.2	-2.2
- O=C(CCN1C(=O)C2CCCCC2C1=O)Nc1ccc(F)c(F)c1F (configuration not stated)
  -0.7%	8	19	-5	-0.2	-2.8
- COC1C(O)C(O)C(O)C(O)C1O (configuration not stated)
  -0.3%&1.7%	.	3	8	.	2.3
- COC(=O)C(CCSC)NC(=O)C12CC3CC(CC(C3)C1)C2 (configuration not stated)
  -0.3%[38.3 µM]	-19	5	-4	-0.3	-2.6
- CCOc1ccc(CN2CCN(S(=O)(=O)c3ccc(NC(C)=O)cc3)CC2)cc1
  -0.6%	15	-2	12	1.4	8.4
- NC(=O)CN1C(=O)C2(SCC(=O)N2c2cccc(F)c2)c2ccccc21 (configuration not stated)
  -4.1%	-12	.	.	2.0	.

Entries from the list above that have a COOH group:
Values in the order: PINK1 expr mod	TRPML1 inh	Six1-Eya2 inh	D2 potentiator	TRPML1 agonist	D2 agonist
- O=C(NNC(=O)c1ccccc1C(=O)O)c1ccc(O)cc1
  -3.1%	27	3	-1	1.6	1.4
- COc1cc(/C=C2\SC(=O)N(CC(=O)Nc3ccc(C)cc3)C2=O)cc(Cl)c1OCC(=O)O
  -1.0%	-4	?	1	1.1	0.7
- CCCCNC(=O)c1onc(CSc2ccc(F)cc2)c1C(=O)O
  1.7%	-13	9	3	-0.1	3.9

Later entries
Values in the order: PINK1 expr mod	TRPML1 inh	Six1-Eya2 inh	D2 potentiator	TRPML1 agonist	D2 agonist
- COc1cc(-c2n[nH]c(=S)n2-c2ccc(Br)cc2)cc(OC)c1OC
  4.6%	0	0	0	4.4	-6.3
- COc1ccc(-c2cc(-c3ccc(Cl)cc3)n[nH]2)c(O)c1
  12%	.	-1	0	.	-3.7
- O=C(/C=C/c1cccc(Cl)c1)OCC(=O)c1ccc[nH]1
  3.0%	-7	4	-5	0.0	-2.1
- O=C(CCS(=O)(=O)c1ccc2c(c1)NC(=O)CO2)Nc1cccc(C(F)(F)F)c1
  -0.2%	-4	.	.	2.4	.
- C/C(=N\NC(=O)c1cccc(S(=O)(=O)N2CCOCC2)c1)c1cc2ccccc2o1
  -0.8%	37	-5	-15	-0.6	-6.0
- O=C1C2ON(c3ccc(Cl)cc3)C(c3ccco3)C2C(=O)N1c1ccccc1 (configuration not stated)
  0.6%	-1	0	4	2.1	6.1
- CCC(C)NC(=O)CNC(=S)N(Cc1ccc(F)cc1)C1CCCCC1 (configuration not stated)
  -0.9%	-12	7	-2	-0.7	-1.2
- CCCN1C2CCCC1CC(NC(=S)NCCCOCC)C2 (configuration not stated)
  2.5%	-13	5	-9	-0.3	-0.8

Nothing new here: an excerpt of the list.
Values in the order: PINK1 expr mod	TRPML1 inh	Six1-Eya2 inh	D2 potentiator	TRPML1 agonist	D2 agonist
- CCC(C)NC(=O)CNC(=S)N(Cc1ccc(F)cc1)C1CCCCC1 (configuration not stated)
  -0.9%	-12	7	-2	-0.7	-1.2
- CCCN1C2CCCC1CC(NC(=S)NCCCOCC)C2 (configuration not stated)
  2.5%	-13	5	-9	-0.3	-0.8

Source: PubChem
